Beta apoptosis: blocks beta cell apoptosis; INS-1E cytokine-induced death, ATP luminescence, 48 h; percent of positive-control rescue, neutral wells zero; protection from apoptosis, % (test concentration not listed); actives 0.8% (n = 300,000);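 active means all replicates at 75% or more, or half of them and the mean; inconclusive means half reach 75% but not the mean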;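 further: 0% = cytokine-treated negative control wells and 100% = positive control rescue; higher means more ATP so stronger rescue from cytokine killing; wells of about 40 µL received 100 nL stock; the first replicate is given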
RanGTP-Imp inh: disruptors of Ran-importin-beta complex formation – biochemical, FRET, CFP-Ran, YFP-importin-beta, homogeneous, primary screen; cell-free CFP-Ran/YFP-importin-beta FRET ratio; AID 2216; inhibition, % (no concentration beside the values); actives 1.1% (n = 300,000);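 active means most replicates above 15%; inconclusive means exactly half above 15%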;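 further: 0% = DMSO wells and 100% = Ran loaded with GDP instead of GTP; wells of about 40 µL received 100 nL stock; the first replicate is given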
LANA-H2A inh: blocks KSHV LANA binding to histone H2A/H2B | actives 0.6% (n = 320,000) | cell-free LANA-H2A/H2B peptide, fluorescence polarization | Q9QR71 | inhibition, % (test concentration not listed); in the data active means inhibition mostly above about 10%, no sharp cut-off; inactive means mostly below about 6.7%;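 further: stock transfer was 7.5 nL into about 10 µL; 0% = median of vehicle wells and 100% = median of positive control wells; one replicate is shown; the record names a cut of 25% in any replicate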
Target sequence (Q9QR71 whole entry, looked up): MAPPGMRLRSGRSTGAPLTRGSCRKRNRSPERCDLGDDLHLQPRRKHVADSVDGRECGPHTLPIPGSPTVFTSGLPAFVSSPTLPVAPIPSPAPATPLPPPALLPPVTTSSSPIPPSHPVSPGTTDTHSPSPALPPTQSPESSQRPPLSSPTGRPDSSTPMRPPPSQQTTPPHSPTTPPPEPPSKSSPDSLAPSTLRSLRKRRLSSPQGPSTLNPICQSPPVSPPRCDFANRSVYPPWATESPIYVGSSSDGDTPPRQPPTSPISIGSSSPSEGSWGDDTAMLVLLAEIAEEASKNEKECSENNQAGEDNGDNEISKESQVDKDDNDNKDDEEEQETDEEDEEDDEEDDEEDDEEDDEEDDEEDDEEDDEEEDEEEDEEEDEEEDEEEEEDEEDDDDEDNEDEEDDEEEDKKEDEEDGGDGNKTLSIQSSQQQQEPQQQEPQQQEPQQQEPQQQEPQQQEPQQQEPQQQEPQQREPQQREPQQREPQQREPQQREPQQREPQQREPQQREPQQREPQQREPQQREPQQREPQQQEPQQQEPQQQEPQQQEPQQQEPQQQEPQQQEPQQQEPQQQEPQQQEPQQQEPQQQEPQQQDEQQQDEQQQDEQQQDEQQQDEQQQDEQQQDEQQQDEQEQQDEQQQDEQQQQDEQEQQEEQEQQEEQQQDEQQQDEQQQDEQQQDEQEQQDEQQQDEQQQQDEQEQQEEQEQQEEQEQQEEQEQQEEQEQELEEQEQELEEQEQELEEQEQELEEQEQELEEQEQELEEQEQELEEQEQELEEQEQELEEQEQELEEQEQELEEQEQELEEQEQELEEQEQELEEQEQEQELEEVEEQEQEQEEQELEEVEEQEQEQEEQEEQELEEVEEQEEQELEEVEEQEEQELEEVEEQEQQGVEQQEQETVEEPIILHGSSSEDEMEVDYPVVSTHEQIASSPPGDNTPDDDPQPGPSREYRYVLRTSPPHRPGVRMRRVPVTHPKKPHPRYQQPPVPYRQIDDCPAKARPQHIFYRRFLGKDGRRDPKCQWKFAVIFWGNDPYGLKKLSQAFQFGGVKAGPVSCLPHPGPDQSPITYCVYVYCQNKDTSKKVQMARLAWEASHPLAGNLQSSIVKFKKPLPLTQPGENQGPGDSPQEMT
AF4-AF9 inh: inhibitors of human MLL-AF4/AF9 interaction; AlphaScreen, biotin-AF4 peptide binding to FLAG-AF9; AID 651704; inhibition, % at 10 µM; P42568; actives 0.47% (n = 350,000);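 active means every replicate reaching a set inhibition limit, whatever the replicate mean, cut at about 25% in these data; inconclusive means mean inhibition reaches that limit but some replicates miss it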;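 further: 0% = plate neutral control median and 100% = total signal loss; the record names both 10 and 1 µM as test concentration; the first replicate is given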
Calb FLC: C. albicans growth modulation with fluconazole | growth inhibition, % (concentration not given with the values) | actives 0.57% (n = 300,000) | AID 1979 | C. albicans CaCi-2 (fluconazole-resistant clinical isolate) + fluconazole, Alamar Blue growth, 48 h;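 active means most replicates above 75%; inconclusive means exactly half above 75%; inactive means most below 75%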;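 further: all wells also contain fluconazole at 8 µg/ml as a sub-toxic cotreatment; 0% = median of DMSO wells and 100% = median of geldanamycin control wells; wells of about 8 µL received 7.5 nL stock; the first replicate is given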
T cruzi inh: blocks replication of Trypanosoma cruzi; T. cruzi beta-gal in NIH3T3, luminescence, 90 h; inhibition, % (test concentration not listed); actives 1.4% (n = 300,000); AID 1885;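 active means mean inhibition across valid replicates above about 55%, limit read from the data; inconclusive means mean below that limit but half or more replicates reach it; inactive means mean below it, under half of replicates reach it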;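 further: signal also drops with host cell toxicity which is not excluded here; 0% = plate median of DMSO wells and 100% = zero luminescence signal; higher percent means less beta-gal luminescence so fewer parasites; stock transfer was 50 nL into about 50 µL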
Bfl-1 A1 inh: inhibitors of the anti-apoptotic protein A1, read as caspase activation. MEF A1-2A-BIM cells, Caspase-Glo 3/7 luminescence, 3 h; percent of clofoctol response, vehicle zero. caspase activation, % (no concentration beside the values). actives 0.066% (n = 330,000);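 active means over half of replicate activation scores above 10%, or exactly half above 10 with the replicate mean above 10; inconclusive means replicate mean below 10 yet half the replicates above 10; inactive means over half of replicates below 10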;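 further: wells of about 30 µL received 50 nL stock; many hits fall short of the cut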
Vif TR-FRET: inhibitors of Vif binding to APOBEC3G peptide, primary screen, biochemical, TR-FRET, GST-Vif 1-94, biotin-A3G peptide, dose response retest (AID 1117319); TR-FRET GST-Vif / biotin-A3G peptide binding; higher % means a stronger effect; test concentration not given here; strong numbers were not always called active; inhibition, %; hits with a dose series show IC50 in µM; actives 0.57% (n = 260,000);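 active means above the screen mean plus three standard deviations and confirmed in dose response; inconclusive means results disagree or hit not tested in dose response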;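 further: Vif residues 1-94 fused to GST binding biotinylated APOBEC3G peptide 110-148; 0% = full assay without inhibitor and 100% = GST in place of GST-Vif; retest series ran down from 100 µM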
The depositor's hits bear a star; & = joins results of further samples.

Screening Cc1ccc2[nH]c(C)c(CC(=O)NCc3ccccc3)c2c1 returned Beta apoptosis 4, RanGTP-Imp inh -3.1, LANA-H2A inh -0.2, AF4-AF9 inh 6.3, Calb FLC 2, T cruzi inh -23 and Bfl-1 A1 inh -0.3.
For O=C(NCc1cccnc1)c1ccc(NS(=O)(=O)c2ccccc2)cc1 the results were Beta apoptosis -3, RanGTP-Imp inh -1.1, LANA-H2A inh 4.6, AF4-AF9 inh 0.1, Calb FLC -5, T cruzi inh -2 and Bfl-1 A1 inh 1.0.
For C=CCc1cc(Cl)ccc1OCCCNCCO the results were Beta apoptosis -8, RanGTP-Imp inh -4.0, LANA-H2A inh 0.9, AF4-AF9 inh 0.8, Calb FLC -48, T cruzi inh 38, Bfl-1 A1 inh 0.9 and Vif TR-FRET 3%.
CC(C)CN1CCN(Cc2ccc3ncccc3c2)CC1CCO (stereo not drawn) was read as Beta apoptosis -1, RanGTP-Imp inh -2.2, LANA-H2A inh -7.4, AF4-AF9 inh -5.7, Calb FLC -4, T cruzi inh 10, Bfl-1 A1 inh 0.9 and Vif TR-FRET -9%.
Screening CS(=O)(=O)Nc1ccc(C(=O)NCCSCc2c(F)cccc2Cl)cc1 returned Beta apoptosis 0, RanGTP-Imp inh -1.0, LANA-H2A inh 7.7, AF4-AF9 inh 0.9, Calb FLC 7, T cruzi inh 6, Bfl-1 A1 inh -0.5 and Vif TR-FRET 5%.
For COCCNC(=O)CSCc1c(F)cccc1Cl the results were Beta apoptosis -1, RanGTP-Imp inh -4.5, LANA-H2A inh 1.8, AF4-AF9 inh -0.9, Calb FLC 0, T cruzi inh -14, Bfl-1 A1 inh -0.7 and Vif TR-FRET 2%.
COCCn1c(=NC(=O)CCS(=O)(=O)c2ccccc2)sc2c(OC)ccc(OC)c21 was read as Beta apoptosis 3, RanGTP-Imp inh -1.0, LANA-H2A inh 5.6, AF4-AF9 inh -1.1, Calb FLC -2, T cruzi inh 21, Bfl-1 A1 inh 0.6 and Vif TR-FRET -44%.
Screening FC(F)(F)C12CC(c3ccccc3)=NCCN1CCN2 (stereo not drawn) returned Beta apoptosis -4, RanGTP-Imp inh 5.2, LANA-H2A inh -1.2, Calb FLC -11, T cruzi inh -6, Bfl-1 A1 inh -0.1 and Vif TR-FRET 3%.
`C=CC[C@H](CC(=O)N(CCO)Cc1ccccc1)C(=O)N[C@H](COC(=O)[C@@H](CC=C)Cc1ccc(F)cc1)Cc1ccccc1` gave Beta apoptosis -9, LANA-H2A inh -0.9, AF4-AF9 inh 3.6 and Bfl-1 A1 inh -0.7.
Cc1ccc(Cc2cnc(NC(=O)c3ccco3)s2)cc1 was read as Beta apoptosis 0, RanGTP-Imp inh 3.4, LANA-H2A inh 2.7, Calb FLC inconclusive, T cruzi inh -13, Bfl-1 A1 inh -3.8 and Vif TR-FRET -1%.
For CN(CC(=O)Nc1ccc(F)cc1)C(=O)Cn1cnc2ccc(Cl)cc2c1=O the results were Beta apoptosis -3, LANA-H2A inh -3.6, AF4-AF9 inh -4.9, Bfl-1 A1 inh -0.2 and Vif TR-FRET 20%.
`COc1ccc(/C=C2\C(=O)NC(=S)N2C(=O)c2ccc(C)cc2)cc1` gave Beta apoptosis -9, RanGTP-Imp inh 8.1, LANA-H2A inh -4.9, AF4-AF9 inh -3.5, Calb FLC -5, T cruzi inh -11, Bfl-1 A1 inh 0.2 and Vif TR-FRET -2%.
Cc1cnc(C)c(N2CCC(C(=O)NC(C)c3cccs3)CC2)n1 (stereo not drawn) was read as Beta apoptosis 4, RanGTP-Imp inh 5.7, LANA-H2A inh -3.7, Calb FLC 4, T cruzi inh 6, Bfl-1 A1 inh -0.5 and Vif TR-FRET 0%.
`COc1cccc(CNc2cc(CSc3ccc(Cl)cc3)nc(C)n2)c1` gave Beta apoptosis -8, RanGTP-Imp inh -0.3, LANA-H2A inh -2.4, Calb FLC -3, T cruzi inh -7, Bfl-1 A1 inh -0.2 and Vif TR-FRET 10%.
For CCC(=O)Nc1ccc(C(=O)CSc2nnc(-c3ccc(NS(C)(=O)=O)cc3)n2C)cc1OC the results were Beta apoptosis 1, RanGTP-Imp inh -0.6, LANA-H2A inh -2.2, Calb FLC -3, T cruzi inh -5, Bfl-1 A1 inh 0.1 and Vif TR-FRET 3%.
Screening COc1ccc2[nH]cc(S(=O)(=O)c3ccc(C(C)C)cc3)c(=O)c2c1 returned Beta apoptosis 0, RanGTP-Imp inh 4.5, LANA-H2A inh -6.9, AF4-AF9 inh -1.5, Calb FLC -4, T cruzi inh 34, Bfl-1 A1 inh 0.6 and Vif TR-FRET -2%.
O=C(CCl)N=c1sccn1Cc1ccc(Cl)cc1Cl was read as Beta apoptosis 69, RanGTP-Imp inh 2.7, LANA-H2A inh -2.0, AF4-AF9 inh 0.3, Calb FLC -56, T cruzi inh 99*, Bfl-1 A1 inh 2.7 and Vif TR-FRET -6%.
For COc1cccc(N2CCN(C(=O)C3CCCN(c4ncnc5c4nc4n5CCCCC4)C3)CC2)c1 (stereo not drawn) the results were Beta apoptosis 5, RanGTP-Imp inh 0.7, LANA-H2A inh -2.7, AF4-AF9 inh 13, Calb FLC 20, T cruzi inh 12 and Bfl-1 A1 inh -1.5.
Screening Cc1cc(NCc2ccccc2)nc(N2CCOCC2)n1 returned Beta apoptosis -2, RanGTP-Imp inh 2.2, LANA-H2A inh -3.7, Calb FLC 0, T cruzi inh 0, Bfl-1 A1 inh -2.3 and Vif TR-FRET 17%.
For COc1ccc(C(=O)NCC(c2ccco2)N2CCOCC2)cc1OC (stereo not drawn) the results were RanGTP-Imp inh 9.1, LANA-H2A inh 5.5, AF4-AF9 inh -0.7, Calb FLC 8, T cruzi inh -6, Bfl-1 A1 inh -0.4 and Vif TR-FRET 3%.
`O=C(COC(=O)CNC(=O)C1CCCCC1)Nc1cc(C(F)(F)F)ccc1Cl` gave Beta apoptosis 2, LANA-H2A inh -1.8, AF4-AF9 inh 2.7 and Bfl-1 A1 inh -0.2.
For N=C(c1cccc([N+](=O)[O-])c1)N1CCCCC1 the results were Beta apoptosis 1, RanGTP-Imp inh inconclusive, LANA-H2A inh 4.0, AF4-AF9 inh -1.8, Calb FLC -2, T cruzi inh -11, Bfl-1 A1 inh 0.3 and Vif TR-FRET 12%.
`Cc1nn(-c2ccccc2)c(=S)n1-c1ccccc1` gave RanGTP-Imp inh -1.8, LANA-H2A inh 1.7, Calb FLC -14, T cruzi inh -9, Bfl-1 A1 inh 0.5 and Vif TR-FRET 0%.
Cc1cc(C(=O)COc2cccc([N+](=O)[O-])c2)c(C)n1C1CC1 was read as Beta apoptosis 4, LANA-H2A inh 0.4, AF4-AF9 inh 7.6, Bfl-1 A1 inh -4.7 and Vif TR-FRET 6%.
COc1ccc(NC(=O)CN(C)CC(=O)Nc2sc3c(c2C(N)=O)CCC3)cc1 was read as Beta apoptosis -4, RanGTP-Imp inh 3.5, LANA-H2A inh 1.6, AF4-AF9 inh 2.9, Calb FLC 11, T cruzi inh -2, Bfl-1 A1 inh -1.3 and Vif TR-FRET 6%.
COC(=O)C1C(O)=C(C=Nc2cccc3ccccc23)C(=O)CC1(C)C (stereo not drawn) was read as Beta apoptosis -2, RanGTP-Imp inh 5.2, LANA-H2A inh 0.9, AF4-AF9 inh 12, Calb FLC 6, T cruzi inh 10, Bfl-1 A1 inh 0.4 and Vif TR-FRET -5%.
Cc1nn(Cc2ccccc2)c(C)c1NC(=O)c1cccs1 was read as Beta apoptosis -9, RanGTP-Imp inh -1.6, LANA-H2A inh 6.9, AF4-AF9 inh -7.6, Calb FLC 6, T cruzi inh -10, Bfl-1 A1 inh 0.0 and Vif TR-FRET -8%.
COCCNS(=O)(=O)c1ccc2c(c1)oc(=O)c1cc(S(=O)(=O)NCCOC)ccc12 was read as Beta apoptosis -5, RanGTP-Imp inh -3.6, LANA-H2A inh -4.3, Calb FLC 2, T cruzi inh 2, Bfl-1 A1 inh 0.6 and Vif TR-FRET 1%.
`Cc1ccccc1Nc1nc(CSc2nnnn2-c2ccccc2)cs1` gave Beta apoptosis -1, RanGTP-Imp inh 1.2, LANA-H2A inh -0.6, Calb FLC 1, T cruzi inh 18, Bfl-1 A1 inh 0.3 and Vif TR-FRET 14%.
CCn1c(C)c(C2=CCN(S(=O)(=O)c3ccc(C)cc3)CC2)c2ccccc21 was read as Beta apoptosis -9, RanGTP-Imp inh 3.5, LANA-H2A inh 1.6, Calb FLC inconclusive, T cruzi inh 25 and Bfl-1 A1 inh -0.8.
For CCO[C@@H]1OC(C(=O)N2CCOCC2)=C[C@H](C2CCCCC2)[C@H]1CCCO the results were Beta apoptosis 0, RanGTP-Imp inh 3.8, LANA-H2A inh 1.9, AF4-AF9 inh -6.0, Calb FLC -5, T cruzi inh 7, Bfl-1 A1 inh -0.9 and Vif TR-FRET 6%.
CC(=O)c1ccc(Oc2ncnc3sccc23)c(CN2CCOCC2)c1 was read as Beta apoptosis -1, RanGTP-Imp inh 1.9, LANA-H2A inh 0.4, Calb FLC -3, T cruzi inh 4, Bfl-1 A1 inh 0.3 and Vif TR-FRET 19%.
For O=C(C1CC1)N(CCN(Cc1ccccc1)C(=O)C1CC1)Cc1ccccc1 the results were Beta apoptosis -3, RanGTP-Imp inh 2.7, LANA-H2A inh -4.6, Calb FLC -57, T cruzi inh 6, Bfl-1 A1 inh -0.4 and Vif TR-FRET -3%.
`COc1ccc(S(N)(=O)=O)cc1C(=O)NCC(C)(C)N1CCCCC1` gave Beta apoptosis 12, RanGTP-Imp inh 5.1, LANA-H2A inh 0.0, AF4-AF9 inh 0.4, Calb FLC 9, T cruzi inh 7 and Bfl-1 A1 inh 0.6.
CC(=O)c1ccc(N2CCN(CC3CCCCC3)CC2)cc1 was read as Beta apoptosis -1, RanGTP-Imp inh 3.1, LANA-H2A inh 2.6, AF4-AF9 inh 2.2, Calb FLC 4, T cruzi inh -7 and Bfl-1 A1 inh -0.9.
Fc1ccc(F)c(CN2CCN(c3ncccn3)CC2)c1 was read as Beta apoptosis -3, RanGTP-Imp inh 0.2, LANA-H2A inh -0.2, AF4-AF9 inh -44, Calb FLC -7, T cruzi inh 2, Bfl-1 A1 inh -0.1 and Vif TR-FRET 1%.
COc1ccc2[nH]c3c(c2c1)CCN1C(=O)N([C@@H](C)C(=O)NCc2ccccc2)C(=O)[C@]31C was read as Beta apoptosis -3, RanGTP-Imp inh 7.0, LANA-H2A inh 8.1, AF4-AF9 inh 2.8, Calb FLC -1, T cruzi inh 10 and Bfl-1 A1 inh 2.1.
`C[C@H](CO)N1C[C@H](C)[C@@H](CN(C)S(C)(=O)=O)Oc2ccc(NC(=O)C3CCCCC3)cc2C1=O` gave Beta apoptosis -1, LANA-H2A inh -3.4, AF4-AF9 inh -31&-13 and Bfl-1 A1 inh -0.2.
`Cc1ccc(SCCN2CCN(Cc3ccccc3)CC2)cc1` gave Beta apoptosis 1, RanGTP-Imp inh 2.9, LANA-H2A inh 3.5, AF4-AF9 inh 6.2, Calb FLC -22, T cruzi inh 73* and Bfl-1 A1 inh -0.3.
`CCn1cc(C(=O)NCCC(=O)NC(C)C)c(=O)c2cc3c(cc21)OCO3` gave Beta apoptosis -4, RanGTP-Imp inh 2.0, LANA-H2A inh -6.2, AF4-AF9 inh 2.9, Calb FLC -7, T cruzi inh -72, Bfl-1 A1 inh 1.8 and Vif TR-FRET -2%.

Screening results as filed in PubChem BioAssay.
